rRNA inh HTS: inhibitors of bacterial rRNA selective over humanized ribosomes | E. coli WT GFP vs humanized-ribosome RFP mutants, fluorescence, 24 h; hits give low values; DMSO median 0, no signal -100 | AID 720706 | GFP signal change (wild-type ribosome), % (no concentration beside the values) | 1.6% of 350,000 active;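 active means significant combined selectivity score with lowered wild-type GFP, culture density cut under 30%, mutant RFP and density less affected; inactive means any of these conditions unmet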; further: one replicate is shown; some compounds called inactive have numbers as strong as hits
rRNA inh HTS OD600: second read-out of rRNA inh HTS, no call of its own (marks repeat the call); OD600 change, %; measured here: OD600 growth;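 optical density of the mix in the first replicate; 0 = DMSO median and -100 = no signal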
rRNA inh HTS RFP: also measured in rRNA inh HTS; calls as there; RFP signal change, %; measured here: RFP humanized mutant strains;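 first replicate; 0 = DMSO median and -100 = no signal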
Active calls of the source: *; & = joins results of further samples; ! = a repeat was not active. An excerpt, so the mix of outcomes need not match the whole.

Value order – rRNA inh HTS | rRNA inh HTS OD600 | rRNA inh HTS RFP
Cc1ccc(S(=O)(=O)N2C[C@@H]3N[C@H](C2)[C@@H]3c2ccc(-c3cccc(C)c3)cc2)cc1
  -8 | -35 | 3.3
COc1ccc(S(=O)(=O)Nc2cccc3c2O[C@@H](CN(C)C(=O)Nc2cccc4ccccc24)[C@@H](C)CN([C@@H](C)CO)C3=O)cc1
  0 | -1 | -2.2
O=C(Cc1ccccc1)N1CC2(C1)[C@H](c1ccccc1)[C@@H](CO)N2C(=O)c1cccnc1
  1 | -1 | -2.4
Cc1ccc[n+](C2=C([O-])c3ccccc3C(=O)C2=O)c1
  -12 | -17 | 8.8
COc1ccccc1CNC(=O)C[C@@H]1C[C@@H]2c3cc(NC(=O)CC4CC4)ccc3O[C@@H]2[C@H](CO)O1
  -1 | -2 | -0.3
C[C@@H]1CN([C@@H](C)CO)C(=O)c2cccc(NC(=O)CCCCCC(=O)Nc3ccccc3N)c2O[C@@H]1CN(C)C(=O)Nc1ccccc1
  0 | 15 | 0.0
COc1ccccc1NC(=O)N1C[C@@H]2N[C@H](C1)C2c1ccc(-c2ccc(C(=O)N(C)C)cc2)cc1 (some centres not stated)
  -5&2 | 6&5 | 0.0&-1.0
COC(=O)N1C[C@H](OCc2ccccc2)[C@H]2C[C@@H]1c1ccccc1O2
  -15 | -16 | -0.4
C[C@@H]1CN([C@H](C)CO)C(=O)c2cc(NC(=O)Nc3ccc(C(F)(F)F)cc3)ccc2O[C@@H](C)CCCCO[C@@H]1CN(C)S(=O)(=O)c1ccc(Cl)cc1
  2 | 13 | -1.5
CNC(=O)C[C@@H]1CC[C@@H]2[C@@H](COc3ccc(NC(=O)Nc4cc(C)cc(C)c4)cc3C(=O)N2C)O1
  2 | 0 | 0.6
CO[C@H]1CN(C)C(=O)c2cc(NC(=O)C3CCOCC3)ccc2OC[C@H](C)N(C(=O)c2ccccc2)C[C@H]1C
  1 | 0 | -2.2
COC(=O)C1=C(C)N(Cc2ccccc2C(F)(F)F)C(=NCc2cc(OC)c(OC)c(OC)c2)NC1c1cccc(C(F)(F)F)c1 (configuration not stated)
  -15 | -28 | 8.2
CC(=O)N(C)C[C@H]1Oc2ccc(NC(=O)NC(C)C)cc2C(=O)N(C)C[C@@H]1C
  2 | 1 | -0.3
CO[C@@H]1CN(C)C(=O)c2ccc(NC(C)=O)cc2OC[C@H](C)N(Cc2cccnc2)C[C@@H]1C
  0 | 2 | 0.1
O=C1N[C@H](Cc2ccccc2)COCc2cnnn2CC[C@H]1Cc1ccc(-c2ccccc2)cc1
  -7 | -8 | -5.4
COc1ccc(-c2cc(NC(=O)Cc3c(C)[nH]c4ccccc34)ccc2Nc2cccnc2)cc1F
  -1 | 0 | 2.7
CCCCCNC(=O)C1C(=O)Nc2ccccc2C(=O)N1C(C)(C)C (configuration not stated)
  4 | 4 | 0.3
CCCC#Cc1ccc2c(c1)O[C@H](CN(C)C(=O)C1CCCCC1)[C@H](C)CN([C@H](C)CO)S2(=O)=O
  -7 | -15 | 6.8
C[C@@H]1CCCCO[C@@H](CN(C)Cc2ccc(C(=O)Nc3ccccc3N)cc2)[C@@H](C)CN([C@H](C)CO)C(=O)c2cc(NC(=O)C3CCCCC3)ccc2O1
  0 | 2 | 1.3
O=C(NCc1ccccc1)[C@H]1CCCN1C(=O)[C@H]1CCCN1C(=O)N1CCOCC1
  17 | 2 | 4.1
Nc1nc2c(ncn2[C@@H]2O[C@H](C(=O)N[C@@H](Cc3ccccc3)C(=O)NCc3ccccc3)[C@@H](O)[C@H]2O)c(=O)[nH]1
  8 | 9 | 3.9
COc1ccccc1NC(=O)N1CC(=O)N2[C@@H](CO)[C@H](c3ccc(C#CCC(C)C)cc3)[C@@H]2C1
  -7 | -40 | 26
COc1ccc(S(=O)(=O)N(C)C[C@@H]2Oc3c(NC(=O)Nc4ccccc4)cccc3C(=O)N([C@@H](C)CO)C[C@@H]2C)cc1
  -4 | -12 | 4.4
CO[C@@H]1CN(C)C(=O)c2ccc(NS(=O)(=O)c3cccc(C)c3)cc2OC[C@H](C)NC[C@H]1C
  2 | 4 | -1.5
CCC(=O)N1C[C@H](O)COC[C@H]2O[C@H](CC(=O)NCc3ccccc3Cl)CC[C@@H]21
  0 | 1 | -2.2
O=C(CC1CC1)N1CC2(C1)[C@@H](c1ccccc1)[C@@H](CO)N2Cc1ccccn1
  3 | 9 | 0.6
COC(=O)C1=C(C)N(Cc2ccccc2)C(=S)NC1c1ccc(-c2ccccc2)cc1 (configuration not stated)
  25 | 7 | 0.9
COCC(=O)N(C)C[C@H]1Oc2cc(C#CC3CCCC3)ccc2S(=O)(=O)N([C@H](C)CO)C[C@@H]1C
  -5 | -13 | 4.3
C[C@@H]1CN([C@@H](C)CO)C(=O)c2cc(NC(=O)c3ccccc3)ccc2O[C@@H](C)CCCCO[C@H]1CN(C)C(=O)NC1CCCCC1
  1 | -15 | 1.7
CC(C)NC(=O)Nc1ccc2c(c1)C(=O)N(C)[C@H]1CC[C@H](CC(=O)NCC(F)(F)F)O[C@@H]1CO2
  1 | 1 | 0.5
CC(C)NC(=O)Nc1ccc2c(c1)C(=O)N(C)C[C@@H](C)[C@@H](CN(C)C(=O)NC(C)C)O2
  1 | 5 | -2.7
C[C@@H]1CN([C@H](C)CO)C(=O)c2cc(NC(=O)c3ccccc3)ccc2O[C@@H](C)CCCCO[C@H]1CN(C)S(=O)(=O)c1cccs1
  2 | 1 | 0.5
CN(C)C(=O)c1cccc(-c2ccc(C3[C@H]4CNC[C@@H]3N4Cc3ccc4c(c3)OCO4)cc2)c1 (some centres not stated)
  -4&0 | 4&-1 | -3.0&-0.9
CO[C@H]1CN(C)C(=O)c2cc(NC(=O)Nc3ccc(Cl)c(Cl)c3)ccc2OC[C@H](C)NC[C@H]1C
  -22&-59 | -57&-79 | 43&-14
O=C(C[C@@H]1CC[C@@H]2[C@H](COC[C@@H](O)CN2Cc2ccc3c(c2)OCO3)O1)Nc1ccc(-c2ccccc2)cc1
  11 | 4 | 5.7
Cc1noc(C)c1NC(=O)Nc1cccc2c1O[C@@H](CN(C)C(=O)Nc1ccc(F)cc1)[C@H](C)CN([C@@H](C)CO)C2=O
  0 | 6 | -1.7
CCCN1CCCCC(NC(=O)OC(C)(C)C)C1=O (configuration not stated)
  1 | 7 | 1.0
CC(C)c1[nH]nc2c1C(c1cccc(C(F)(F)F)c1)N(c1ccccc1)C2=O (configuration not stated)
  -28 | -62 | 7.0
CNC[C@H]1Oc2ccc(N)cc2CC(=O)N([C@H](C)CO)C[C@H]1C
  2 | 7 | 2.9
C[C@@H]1CN([C@@H](C)CO)C(=O)CCCn2nncc2CO[C@H]1CN(C)C(=O)NC1CCCC1
  2 | -2 | 0.9
CO[C@@H]1CN(C)C(=O)c2ccc(NC(=O)C3CCOCC3)cc2OC[C@H](C)N(C)C[C@@H]1C
  2 | 2 | -0.9
CN(C)C(=O)[C@@H]1[C@@H](CO)[C@@H]2Cn3c(cccc3=O)[C@@H]2N1CC1CCCC1
  5 | 3 | 0.1
CO[C@H]1CN(C)C(=O)c2ccc(NC(=O)Nc3ccc(Cl)cc3)cc2OC[C@H](C)NC[C@H]1C
  -2 | 1 | 6.8
O=C(Cc1cn(Cc2ccccc2)c2ccccc12)Nc1ccc(Nc2cccnc2)cc1
  -4 | -2 | 2.1
C[C@H]1CN([C@@H](C)CO)C(=O)c2cc(-c3ccc(F)cc3)cnc2O[C@H]1CN(C)Cc1ccc(F)cc1
  0 | -1 | 2.8
CC(C)NC(=O)Nc1ccc2c(c1)C(=O)N([C@H](C)CO)C[C@@H](C)[C@@H](CN(C)C(=O)C1CCCCC1)OCCCC[C@H](C)O2
  -2 | 2 | -0.1
C[C@H](CO)N1C[C@H](C)[C@@H](CN(C)C(=O)Nc2ccc(F)cc2)Oc2ccc(NC(=O)Nc3ccc4c(c3)OCO4)cc2CC1=O
  2 | -2 | -1.7
COc1ccc2c3c(n(C)c2c1)[C@@H](CO)N(Cc1cccnc1)CC31CN(Cc2cccnc2)C1
  -3 | -5 | -1.9
CC(C)C[C@@H]1COCc2cn(nn2)CC[C@H](Cc2cccc(Cl)c2)C(=O)N1
  0 | -4 | -3.2
C[C@H]1CN([C@@H](C)CO)C(=O)Cc2cc(NS(=O)(=O)c3ccccc3)ccc2O[C@H]1CN(C)Cc1ccc(Cl)c(Cl)c1
  -2 | -13 | 0.0
CN1C(=O)c2cc(NC(=O)C3CCOCC3)ccc2OC[C@H]2O[C@@H](CC(=O)O)CC[C@H]21
  4 | 4 | -3.7
COc1ccc(NC(=O)N(C)C[C@H]2OCc3cn(nn3)CCCC(=O)N([C@@H](C)CO)C[C@H]2C)c(OC)c1
  1 | 3 | -0.7
O=C(c1cccc(F)c1)N1CC(=O)N2[C@H](CO)[C@H](c3ccc(-c4ccccc4)cc3)[C@@H]2C1
  -2 | -6 | 5.5
CNC[C@@H]1OCCCC[C@@H](C)Oc2ccc(NC(=O)Nc3ccc(OC)cc3)cc2C(=O)N([C@H](C)CO)C[C@@H]1C
  3 | 3 | -1.2
Cc1noc(C)c1NC(=O)Nc1ccc2c(c1)CC(=O)N([C@@H](C)CO)C[C@H](C)[C@H](CN(C)S(=O)(=O)c1cccs1)O2
  -2 | 4 | -0.4
COC(=O)C1=C(C)N(Cc2ccccc2)C(=S)NC1c1cccc(Br)c1 (configuration not stated)
  1 | 11 | -2.7
CCNC(=O)C[C@H]1CC[C@@H]2[C@@H](COc3ccc(NC(=O)Nc4cccc(OC)c4)cc3C(=O)N2C)O1
  -4 | -5 | 2.3
CC(C)C(=O)Nc1ccc2c(c1)C(=O)N(C)[C@@H]1CC[C@H](CC(=O)NCc3cccc(F)c3)O[C@@H]1CO2
  -2 | -3 | -2.7
CNC(=O)C[C@H]1CC[C@H]2[C@H](COc3ccc(NC(=O)NC(C)C)cc3C(=O)N2C)O1
  -1 | 0 | -1.0
O=C(C[C@H]1C[C@H]2c3cc(NC(=O)Nc4ccc(F)cc4)ccc3O[C@H]2[C@H](CO)O1)NCC1CC1
  0 | 1 | 0.0

The listing continues:
Value order – rRNA inh HTS | rRNA inh HTS OD600 | rRNA inh HTS RFP
COc1ccc(NC(=O)Nc2ccc3c(c2)C(=O)N([C@@H](C)CO)C[C@@H](C)[C@@H](CN(C)S(=O)(=O)c2cn(C)cn2)OCCCC[C@@H](C)O3)cc1
  -2 | -1 | -1.8
C[C@@H]1CCCCO[C@H](CN(C)C(=O)Nc2ccc(F)cc2)[C@H](C)CN([C@H](C)CO)C(=O)c2cc(NS(=O)(=O)c3ccc(F)cc3)ccc2O1
  -4 | 2 | -0.5
CC(=O)N(C)C[C@@H]1Oc2ccc(N)cc2C(=O)N(C)C[C@@H]1C
  -1 | -1 | 0.3
O=S(=O)(c1ccc(F)cc1)N1C[C@@H]2N[C@H](C1)C2c1ccc(/C=C/c2ccccc2)cc1 (some centres not stated)
  -28*! | -16*! | -3.7*!
COc1cccc(-c2ccc(C3[C@H]4CNC[C@@H]3N4C(=O)Nc3ccc(C(F)(F)F)cc3)cc2)c1 (some centres not stated)
  -62&-61 | -79&-78 | -16&-16
C[C@H](CO)N1C[C@H](C)[C@H](CN(C)C(=O)Nc2ccc(F)cc2)Oc2cc(-c3ccc(F)cc3)ccc2S1(=O)=O
  -4 | -2 | 1.5

Compound activity as filed in PubChem.
